# NPYLR7 ag: activates Aedes aegypti NPYLR7 receptor; HEK293T NPYLR7/Galpha15, GCaMP6s calcium fluorescence; activation, % at 10 µM; 270,000 compounds, 0.15% hits; AID 1259423; in the data active means activation above about 40%;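 further: 0% = vehicle and 100% = reference agonist at the receptor; some compounds past the cut are filed as inactive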
# NPYLR7 ag max-min: also measured in NPYLR7 ag; calls as there; activation, %; measured here: Max-Min RFU normalised activation; some inactives read as strong as hits;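 span of the calcium signal over five minutes; 0% = vehicle and 100% = native peptide agonist; compound fluorescence can raise it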
# An asterisk follows results filed as active; ! = not active in a repeat. This is a subset, so the mix of outcomes need not match the whole.
[1] CC(C)(C)OC(=O)CNC(=O)C(c1ccccc1)N1CCCC1 (stereo unspecified)
- NPYLR7 ag: 0
- NPYLR7 ag max-min: -3

[2] CCC(O)c1ccc(OCCCC(C)(C)C#N)cc1 (stereo unspecified)
- NPYLR7 ag: 2
- NPYLR7 ag max-min: -1

[3] CCOc1cccc(-c2nc3ccccc3c(=O)n2CCc2ccccc2)c1
- NPYLR7 ag: 8
- NPYLR7 ag max-min: 4

[4] Cc1nc2ccnn2c(C)c1CCC(=O)N1CCN(CCO)CC1
- NPYLR7 ag: 1
- NPYLR7 ag max-min: 0

[5] COc1ccc(NC(=O)c2cnc3cc(C)ccn3c2=O)cc1OC
- NPYLR7 ag: 3
- NPYLR7 ag max-min: 21

[6] CC(Cl)C(=O)N1CCN(c2nc3nccc(-c4ccc(Cl)c(Cl)c4)n3n2)CC1 (stereo unspecified)
- NPYLR7 ag: 5
- NPYLR7 ag max-min: -1

[7] O=C(CCn1cnc2ccccc2c1=O)N1CC(c2cccnc2)C1
- NPYLR7 ag: 3
- NPYLR7 ag max-min: 2

[8] CCN(CC)c1ccc(/C=N\NC(=O)CSc2nc3ccccc3n2Cc2ccccc2)c(O)c1
- NPYLR7 ag: 6
- NPYLR7 ag max-min: 8

[9] C#CCNC(=O)CN(C)C1CC(OCC)C12CCCC2 (stereo unspecified)
- NPYLR7 ag: 0
- NPYLR7 ag max-min: -1

[10] Cc1cnn(CCC(=O)Nc2ccc(O)cc2C)c1
- NPYLR7 ag: 0
- NPYLR7 ag max-min: 1

[11] Nc1ccnc(NCc2ccc3[nH]c4c(c3c2)CCCCCC4)n1
- NPYLR7 ag: 1
- NPYLR7 ag max-min: -2

[12] Cc1nc(N2CCCC2)nc(N2CCOCC(CN(C)C)C2)c1C (stereo unspecified)
- NPYLR7 ag: 0
- NPYLR7 ag max-min: -4

[13] CCC(C(=O)N(CCCN1CCOCC1)CC(=O)N(Cc1ccc2c(c1)OCO2)Cc1ccco1)c1ccccc1 (stereo unspecified)
- NPYLR7 ag: 3
- NPYLR7 ag max-min: 16

[14] COc1ccc(C(=O)N2N=C(C(F)F)CC2(O)C(F)F)cc1COc1ccc(Cl)c(C)c1 (stereo unspecified)
- NPYLR7 ag: 3
- NPYLR7 ag max-min: 7

[15] OCCNc1nc(N2CCOCC2)nc(N2CCOCC2)n1
- NPYLR7 ag: 11
- NPYLR7 ag max-min: 6

# Among those listed so far, two have an aryl methoxy group.
[5] COc1ccc(NC(=O)c2cnc3cc(C)ccn3c2=O)cc1OC
- NPYLR7 ag: 3
- NPYLR7 ag max-min: 21

[14] COc1ccc(C(=O)N2N=C(C(F)F)CC2(O)C(F)F)cc1COc1ccc(Cl)c(C)c1 (stereo unspecified)
- NPYLR7 ag: 3
- NPYLR7 ag max-min: 7

# Entries shown so far that have a halogen (2):
[6] CC(Cl)C(=O)N1CCN(c2nc3nccc(-c4ccc(Cl)c(Cl)c4)n3n2)CC1 (stereo unspecified)
- NPYLR7 ag: 5
- NPYLR7 ag max-min: -1

[14] COc1ccc(C(=O)N2N=C(C(F)F)CC2(O)C(F)F)cc1COc1ccc(Cl)c(C)c1 (stereo unspecified)
- NPYLR7 ag: 3
- NPYLR7 ag max-min: 7

# (continued)
[16] CCOC(=O)N1CCC(n2c(-c3ccc(OC)cc3OC)nc3ccccc3c2=O)CC1
- NPYLR7 ag: 5
- NPYLR7 ag max-min: 3

[17] Cc1cc(C(=O)N2CCCn3cncc3C2)c(NC(=O)C(C)(C)C)s1
- NPYLR7 ag: 4
- NPYLR7 ag max-min: 5

[18] CCN1CCN(C(=O)c2ccc(CSc3nnc(-c4ccncc4)n3-c3ccccc3OC)cc2)CC1
- NPYLR7 ag: 7
- NPYLR7 ag max-min: 20

[19] Cc1nc2nc(N3C(=O)c4ccccc4C3=O)nn2c(C)c1Cl
- NPYLR7 ag: 18
- NPYLR7 ag max-min: 8

[20] Cc1cc(C)c(S(=O)(=O)Nc2ccccc2C(=O)OC2CC(C)OC2=O)c(C)c1 (stereo unspecified)
- NPYLR7 ag: 5
- NPYLR7 ag max-min: 3

[21] COc1ccc(CSC(=S)NC2CCS(=O)(=O)C2)cc1 (stereo unspecified)
- NPYLR7 ag: -2
- NPYLR7 ag max-min: -5

[22] CCn1c(SC(C)C(=O)c2c(C)[nH]c3ccccc23)n[nH]c1=O (stereo unspecified)
- NPYLR7 ag: -3
- NPYLR7 ag max-min: -1

[23] CN1CC(=O)N2CCN(C(=O)CN3CCc4ccccc4C3)CC2C1=O (stereo unspecified)
- NPYLR7 ag: 10
- NPYLR7 ag max-min: 6

[24] Cc1ccc(N=c2oc3ccc4ccccc4c3cc2-c2nc3ccccc3[nH]2)cc1
- NPYLR7 ag: 4
- NPYLR7 ag max-min: 14

[25] Cc1ccc(Cc2nc(N3CCCN(C(=O)COc4ccccc4)CC3)c3c(C)nn(-c4ccccc4)c3n2)cc1
- NPYLR7 ag: 10
- NPYLR7 ag max-min: 11

[26] COC(=O)[C@]1(C)N[C@H](c2cccc(-c3ccco3)c2)[C@@H]2C(=O)N(C)C(=O)[C@@H]21
- NPYLR7 ag: 0
- NPYLR7 ag max-min: 0

[27] COC(=O)CCC(=O)N1CCOC(CCc2ccccc2)C1 (stereo unspecified)
- NPYLR7 ag: 9
- NPYLR7 ag max-min: 4

[28] Cc1cc(C)n(CC(O)COc2ccc(C(=O)c3ccccc3)cc2)n1 (stereo unspecified)
- NPYLR7 ag: 4
- NPYLR7 ag max-min: 8

[29] CC(=O)NC(CC(=O)N1CCc2sccc2C1C)c1ccc(C)cc1 (stereo unspecified)
- NPYLR7 ag: 1
- NPYLR7 ag max-min: -1

[30] c1coc(CNc2nc(-c3cccs3)nc3ccccc23)c1
- NPYLR7 ag: -3
- NPYLR7 ag max-min: 2

[31] Fc1ccc(Oc2cc(N3CCC(N4CCCCC4)CC3)ncn2)c(Cl)c1
- NPYLR7 ag: -20
- NPYLR7 ag max-min: -14

[32] CCN(CC)C(=O)C1CCCN(C(=O)CCc2c(C)nn(-c3ccc(C(F)(F)F)cc3)c2C)C1 (stereo unspecified)
- NPYLR7 ag: -23
- NPYLR7 ag max-min: -29

[33] CNC(=O)c1ccc(NC(=O)c2cnn(-c3ccc(F)cc3)c2C(C)C)cc1
- NPYLR7 ag: 16
- NPYLR7 ag max-min: 14

[34] COc1ccc(C(O)c2nc(-c3cnc4ccccc4c3)cs2)cc1 (stereo unspecified)
- NPYLR7 ag: 0
- NPYLR7 ag max-min: -2

[35] NC(=O)CSc1ccc(-c2ccc3c(c2)OCO3)nn1
- NPYLR7 ag: -4
- NPYLR7 ag max-min: -4

[36] CCCC1(C(F)(F)F)CCCN1Cc1cccc(NC(C)=O)c1 (stereo unspecified)
- NPYLR7 ag: -9
- NPYLR7 ag max-min: -9

[37] Cc1ccc(F)c(CNC(=O)C2CCC(=O)N(Cc3ccccn3)C2)c1F (stereo unspecified)
- NPYLR7 ag: 0
- NPYLR7 ag max-min: -1

[38] CC(C)(C)OC(=O)N1CC(O)CC1C(=O)OCC(=O)c1ccc(-c2ccccc2)cc1 (stereo unspecified)
- NPYLR7 ag: -1
- NPYLR7 ag max-min: 5

[39] CC(Sc1ccccn1)C(=O)Nc1ncnc2nc[nH]c12 (stereo unspecified)
- NPYLR7 ag: 3
- NPYLR7 ag max-min: 3

[40] CNC(=O)CSc1nnc(N2CCN(C(=O)COc3cccc(C)c3)CC2)s1
- NPYLR7 ag: -11
- NPYLR7 ag max-min: -18

[41] COc1ccc2c(C)nc(N=C(N)N)nc2c1
- NPYLR7 ag: 59*
- NPYLR7 ag max-min: 63*

[42] CC1CCN(C(=O)c2csc(COc3cccc(Cl)c3)n2)CC1
- NPYLR7 ag: 25
- NPYLR7 ag max-min: 22

[43] COC(=O)c1c(N2C(=O)CC(Sc3ncccc3C(=O)O)C2=O)sc2c1CCCC2 (stereo unspecified)
- NPYLR7 ag: -8
- NPYLR7 ag max-min: -14

[44] Cc1cc(N2CCN(CCO)CC2)n2nc(C(F)(F)F)c(-c3ccccc3)c2n1
- NPYLR7 ag: 2
- NPYLR7 ag max-min: 8

[45] CCOC(=O)Cn1c(=NC(=O)c2ccn(C)n2)sc2cc(CC)ccc21
- NPYLR7 ag: 0
- NPYLR7 ag max-min: 6

[46] Cc1nc2c(C)cccn2c(=O)c1NC(=O)C1CC1
- NPYLR7 ag: 5
- NPYLR7 ag max-min: 2

[47] COc1ccc(CNCc2cn(-c3cccc(F)c3)nc2-c2ccc(C)o2)cc1
- NPYLR7 ag: 12
- NPYLR7 ag max-min: 7

[48] COc1ccc(OC)c(CNC(=O)[C@@H]2C[C@H](NC(=O)c3ccco3)CN2C)c1
- NPYLR7 ag: 7
- NPYLR7 ag max-min: 6

[49] Cc1cc(NC(=O)C(Oc2ccc([N+](=O)[O-])cc2)c2ccccc2)no1 (stereo unspecified)
- NPYLR7 ag: 0
- NPYLR7 ag max-min: -2

[50] O=C(C1CCCC1)N1CCCC(N2CCN(c3ccccc3F)CC2)C1 (stereo unspecified)
- NPYLR7 ag: 1
- NPYLR7 ag max-min: 6

[51] N#Cc1nc2c(C#N)c(N)n(CC3CCCO3)c2nc1C#N (stereo unspecified)
- NPYLR7 ag: 8
- NPYLR7 ag max-min: 8

[52] CC(=O)c1ccc(OCCCC(=O)NC(c2ccccc2)c2nccn2C)cc1 (stereo unspecified)
- NPYLR7 ag: 0
- NPYLR7 ag max-min: -1

[53] O=C(NCCCC(=O)N(Cc1ccco1)Cc1cc2c(cc1Cl)OCO2)OCc1ccccc1
- NPYLR7 ag: -8
- NPYLR7 ag max-min: -13

[54] CCN(CC(=O)Nc1ccc2c(c1)C(=O)N(C)C2=O)c1ccccc1C
- NPYLR7 ag: 7
- NPYLR7 ag max-min: 2

[55] Nc1ccc2oc(=O)ccc2c1
- NPYLR7 ag: 3
- NPYLR7 ag max-min: 8

[56] CCCC(=O)NC(N1CCCCC1)C(Cl)(Cl)Cl (stereo unspecified)
- NPYLR7 ag: -16
- NPYLR7 ag max-min: -18

[57] Nc1ncn([C@@H]2O[C@H](CO)[C@@H](O)[C@H]2O)c(=O)n1
- NPYLR7 ag: 46*!
- NPYLR7 ag max-min: 44*!

[58] CC1CC1c1ccc(CN(C(=O)CNC(=O)c2ccc(O)cc2)C2CC2)o1 (stereo unspecified)
- NPYLR7 ag: 0
- NPYLR7 ag max-min: 1

[59] COc1ccc(NC(=O)C2(C)CCN2Cc2cc3ccccc3o2)cc1OC (stereo unspecified)
- NPYLR7 ag: -1
- NPYLR7 ag max-min: -7

[60] CCCc1cnc2c(c1SCC(=O)Nc1ccc(C)c(Cl)c1)c(=O)n(C)c(=O)n2C
- NPYLR7 ag: 6
- NPYLR7 ag max-min: 5

# In the list so far, these contain a thiophene ring, fused or not.
[17] Cc1cc(C(=O)N2CCCn3cncc3C2)c(NC(=O)C(C)(C)C)s1
- NPYLR7 ag: 4
- NPYLR7 ag max-min: 5

[29] CC(=O)NC(CC(=O)N1CCc2sccc2C1C)c1ccc(C)cc1 (stereo unspecified)
- NPYLR7 ag: 1
- NPYLR7 ag max-min: -1

[30] c1coc(CNc2nc(-c3cccs3)nc3ccccc23)c1
- NPYLR7 ag: -3
- NPYLR7 ag max-min: 2

[43] COC(=O)c1c(N2C(=O)CC(Sc3ncccc3C(=O)O)C2=O)sc2c1CCCC2 (stereo unspecified)
- NPYLR7 ag: -8
- NPYLR7 ag max-min: -14

# Screens as filed in PubChem.
